# Bioassay records from PubChem.
# StopGo RLuc = FMDV 2A StopGo reporter, Renilla signal; HEK cells with a luciferase reporter of 2A StopGo recoding; Potency, µM (top dose mostly 57.5 µM), without a hit: at the highest dose signal change, negative = less light; 0.32% of 120,000 active; active means well fitted falling curve with a large enough effect; inconclusive means small, poorly fitted or top-dose-only effect; inactive means no such curve, though single readings can be large or run the other way; note: nearly all actives have a fitted effect of over 55% in size; overnight with compound
# 2A firefly = lowers the firefly signal of an FMDV 2A StopGo reporter; HEK cells with a luciferase reporter of 2A StopGo recoding; Potency, µM (highest dose often 57.5 µM), for inactives: at the top dose signal change, negative = less light; 0.23% of 120,000 active; AID 1745856; active = well fitted falling curve with a large enough effect; inconclusive = small, poorly fitted or top-dose-only effect; inactive = no such curve, though single readings can be large or run the other way; note: nearly all actives have a fitted effect of over 60% in size; overnight with compound
# * marks the source's active call; other numbers are inactive results; ? = inconclusive; & = joins results of further samples; [ ] = dose if it differs, or a comment. % is set by controls: 0 for no effect and ±100 for the full control effect; potency is the fitted concentration of half-maximal effect. An excerpt, so the mix of outcomes need not match the whole.
# Results follow in this order: 2A firefly, StopGo RLuc
- CCC(=O)Oc1ccc2c(=O)c(Oc3cc(C)cc(C)c3)coc2c1
→ 19%, 20%
- NC(=O)COc1ccc(-c2noc(COc3ccc(Cl)cc3)n2)cc1
→ 5%, 9%
- Cc1ccc(CNS(=O)(=O)c2cc(C(=O)Nc3ccc(C(C)C)cc3)ccc2F)cc1
→ -28%, -4%
- CCc1ccc(C(=O)Nc2ccc3oc(C)nc3c2)cc1
→ -18%, 10µM*
- COc1ccc(Cl)cc1NC(=O)Cn1c(=O)n(CCC(=O)NCc2ccc3c(c2)OCO3)c(=O)c2ccccc21
→ -8%, 2%
- Cc1nn(Cc2ccc(F)cc2)c(C)c1NC(=O)c1cc(-c2cccs2)on1
→ 35µM*, ?
- O=C1c2[nH]nc(-c3ccccc3O)c2C(c2cccc(Cl)c2)N1Cc1cccnc1 (stereo unspecified)
→ -20%, 30%[activator]
- CCOc1ccc(CNC23CC4CC(CC(C4)C2)C3)cc1
→ -6%, -2%
- CCN1CCN(c2ncnc3c2cnn3-c2cc(Cl)ccc2C)CC1
→ -11%, -12%
- CC(C)c1ccc(NC(=O)Nc2csc3c2CCCC3)cc1
→ 15%, 50%[activator]
- CN1CCN(C(=O)c2cnc(N3CCOCC3)c3ccccc23)CC1
→ -11%, -6%
- Cc1cccc(NC(=O)c2cn(Cc3ccccc3)nn2)c1
→ 319%[activator], 62%[activator]
- O=C(O)CNC(=O)C(F)(F)C(F)(F)Cl
→ 8%, 16%
- COC(=O)c1ccccc1NC(=O)c1nc(S(=O)(=O)Cc2cccc(C)c2)ncc1Cl
→ -8%, 6%
- Cc1ccc(Cl)cc1NC(=O)c1oc2ccc(S(=O)(=O)N3CCC4(CC3)OCCO4)cc2c1C
→ -10%, 1%
- O=S(=O)(NCc1cn2ccsc2n1)c1ccccc1
→ 37%[activator], 2%
- O=C(CSc1nnc(Cc2cccs2)n1C1CC1)N1CCN(c2ccccc2)CC1
→ ?, ?
- O=Cc1ccc(Sc2ccc(Cl)cc2)cc1
→ 0%, -4%
- COC(=O)[C@]12C[C@H](CC(=O)NCCCCc3ccccc3)C(=O)N(CCc3ccc(OC)c(OC)c3)C1=C[C@H](COCc1ccccc1)O[C@@H]2C
→ -8%, 0%
- CCOc1ccc(-c2cc(C(=O)Oc3ccc(C#N)cc3)no2)cc1
→ 25%, -9%
- Cc1ccc2[nH]cc(C(C(=O)O)N3CCc4ccccc4C3)c2c1 (stereo unspecified)
→ -14%, -5%
- Fc1ccc(Nc2nc(SCc3ccccc3Cl)nc3ccccc23)cc1
→ -5%, -2%
- Cc1ccccc1NC(=O)CSc1nc(=O)n(CCN(C)C)c2c1CCC2
→ -7%, -7%
- O=C(CSCc1cnn(-c2ccccc2)c1-n1cccc1)NCc1cccc(Cl)c1
→ -18%, 0%
- CN1CCOC(CNC(=O)Cc2ccc(Cl)cc2)C1 (stereo unspecified)
→ 16%, -3%
- Cc1nc2ccccc2n1CC(O)COc1ccccc1F (stereo unspecified)
→ ?, ?
- O=C(/C=C/c1ccc2c(c1)OCO2)NC1CCSC1=O (stereo unspecified)
→ 168%[activator], -9%
- CCCOc1cccc(C(=O)Nc2cccc3cccnc23)c1
→ 23%, -12%
- O=C(NC1CC1)c1cc2c(s1)CCCCC2
→ 172%[activator], 3%
- CCCNC(=O)C1CCN(C(=O)N2CC(C)Oc3ccccc32)CC1 (stereo unspecified)
→ -7%, -7%
- COc1ccc(C)cc1NC(=O)CN(C)S(=O)(=O)c1ccc2c(c1)c(=O)n(C)c(=O)n2C
→ -15%, -16%
- CC(=O)c1ccc(NS(=O)(=O)c2ccc(-c3coc(C)n3)cc2)cc1
→ 14%, 213%[activator]
- COC(=O)c1ccc(/C=C/C(=O)c2ccc3cc(OC)ccc3c2)cc1
→ 17%, 11%
- CN1CCN(C2(CNC(=O)c3ccc([N+](=O)[O-])cc3)CCCCC2)CC1
→ -13%, -4%
- Cc1nc(-c2ccccn2)sc1C(=O)Nc1ccc2c(c1)OCCCO2
→ 131%[activator], 22%
- COc1ccccc1-n1c(=O)c2c(n3cnnc13)-c1ccccc1CC21CCCCC1
→ 10%, 7%
- Cc1ccc(NC(=O)CSCc2cc(=O)n3oc(C)cc3n2)c(C)c1
→ -3%, -3%
- CCOc1ccc(S(=O)(=O)c2c(C(=O)c3ccc(CC)cc3)cnc3ccc(C)cc23)cc1
→ -3%, 1%
- O=C(Nc1cccnc1)C1(c2cccc(F)c2)CCC1
→ 13%, 6%
- COc1ccc(OC)c(NC(=O)C(C)n2c(=O)c(-c3ccccc3NC(C)=O)nc3ccccc32)c1 (stereo unspecified)
→ -15%, -11%
- CC(=O)Nc1ccc(NC(=O)CSc2nccn2Cc2ccc3c(c2)OCO3)cc1
→ -25%, -10%
- Cc1cccc(C)c1NC(=O)/C(C#N)=C\c1ccc(OC(F)F)cc1
→ 3%, 24%
- O=C(Nc1cccc(C(F)(F)F)c1)c1ccc2snnc2c1
→ 24%, 4%
- C=CCNc1nc(-c2ccc(S(=O)(=O)N3CCOCC3)cc2)cs1
→ 42%[activator], 29%
- Cc1nc(-n2nc(C)c(Cl)c2C)sc1C(=O)N1CCC(C)CC1
→ 1%, 1%
- O=C(CCc1ncc(-c2ccccc2)o1)Nc1ccc(N2CCOCC2)cc1N1CCOCC1
→ 1%, 4%
- CC(C)Cc1nn2c(=O)cc(COC(=O)CNC(=O)c3ccc(C(C)(C)C)cc3)nc2s1
→ ?, ?
- Cn1c(=O)c2c(nc(SCC(=O)NC(C)(C)C)n2Cc2ccccc2F)n(C)c1=O
→ 21%, 5%
- COc1ccc(-c2nc(CSCC(=O)NC3CCCC3)c(C)o2)cc1OC
→ -25%, -20%
- CCOc1ccccc1Oc1c(C)oc2cc(OC(=O)C(C)(C)C)ccc2c1=O
→ 68%[activator], 0%
- Cc1cc(NC2CCCCC2)n2nc(C)c(-c3ccccc3)c2n1
→ 23%, 2%
- CCc1ccc(NC(=O)C2CCCN(S(=O)(=O)c3cccc4nonc34)C2)cc1 (stereo unspecified)
→ -17%, -6%
- CCOCCc1nn2c(=O)cc(COC(=O)COc3ccc(C)c(C)c3)nc2s1
→ -14%, -5%
- CCN(CC)c1nn2c(=O)c(C(=O)NCc3cccc(OC)c3OC)cnc2s1
→ -13%, -9%
- Cc1ccc(Cl)cc1NC(=O)C1CCCN(S(=O)(=O)c2cccc3cccnc23)C1 (stereo unspecified)
→ -20%, 30%
- COc1ccc(C)c2sc(N(Cc3cccnc3)C(=O)COc3ccccc3)nc12
→ -3%, 4%
- CCOC(=O)c1ccc(NC(=O)c2csnn2)cc1
→ 135%[activator], 2%
- Cc1cc2nnc(SCc3ccc(F)cc3)n2c2ccccc12
→ 7%, 8%
- COc1ccc(NC(=O)NCc2c(C)nn(C)c2C)c(OC)c1
→ 7%, -2%
- O=c1[nH]c(=O)n(CC2CCCO2)c2nccc(-c3ccccc3)c12 (stereo unspecified)
→ 16%, 12%

# Two of the compounds above, as labelled records:
> COc1ccccc1-n1c(=O)c2c(n3cnnc13)-c1ccccc1CC21CCCCC1
- 2A firefly = 10%
- StopGo RLuc = 7%

> Cc1ccc(NC(=O)CSCc2cc(=O)n3oc(C)cc3n2)c(C)c1
- 2A firefly = -3%
- StopGo RLuc = -3%

# Next records:
# Results follow in this order: 2A firefly, StopGo RLuc
- CCCn1c2ccccc2c2cnn(CC(=O)Nc3ccc(C)cc3Br)c(=O)c21
→ 1%, 5%
- O=C(Nc1ccc2oc(C3CC3)nc2c1)c1ccc(=O)[nH]n1
→ 38%[activator], -9%
- CCCC(=O)NNC(=S)NC(C)c1ccccc1 (stereo unspecified)
→ 17%, 34%[activator]
- Cc1ccc(-n2c3c(c(=O)[nH]c2=O)CN(Cc2ccccn2)CN3)cc1C
→ 7%, 5%
- CCCOc1ccc(/C=C(/C#N)c2nc3ccccc3[nH]2)cc1OC
→ 92%&179%[activator], 186%&107%[activator]
- Cc1cc(NC(=O)CSc2ncnc3ccccc23)ccc1Br
→ -3%, -15%
- CCCOc1ccc(OCCn2cnc3c2c(=O)n(C)c(=O)n3C)cc1
→ ?, ?
- Cc1c(Cl)cccc1NC(=O)CN(CCc1ccccc1)S(=O)(=O)c1ccccc1
→ -12%, 3%
- COc1ccc(C2=NN(C(C)=O)C(c3ccc4nccnc4c3)C2)cc1OC (stereo unspecified)
→ 22%, 22%
- CCCN1C=NS(=O)(=O)c2cc(C(=O)NC(C)CC)ccc21 (stereo unspecified)
→ 9%, 8%
- c1ccc2cc(CNCCc3c[nH]c4ccccc34)ccc2c1
→ -13%, -10%
- O=C(CCc1cccnc1)NCc1ccc(C(F)(F)F)cc1
→ -7%, -13%[1.06 µM]
- Clc1ccc(-c2csc(-c3cccnc3)n2)cc1
→ 233%[activator], 0%
- CCOc1ccc(-n2nc(CO)c(C(=O)NCc3cccc(OC)c3)n2)cc1
→ 65%[activator], 18%
- Cc1ccc(NC(=O)CSc2nc(-c3ccccc3Cl)nc3cc(=O)[nH]n23)c(C)c1
→ -7%, -13%
- CCOc1ccccc1Nc1sc(C(=O)c2ccccc2)c(N)c1C(=O)Nc1ccc(F)cc1
→ -22%, -24%
- COc1ccc(N2CCCS2(=O)=O)cc1NS(=O)(=O)c1ccc(F)c(C)c1
→ -6%, 0%
- CC(=O)N/N=C/c1cc(Cl)ccc1OCCCOc1cc(C)ccc1C(C)C
→ -4%, -5%
- O=C(O)C(c1c[nH]c2cc(CO)ccc12)N1CCN(CCOc2ccc(Cl)cc2)CC1 (stereo unspecified)
→ -5%, -11%
- Cc1[nH]nc(-c2ccc(S(=O)(=O)N3CCN(c4ccccc4)CC3)s2)c1C
→ ?, -27%
- Cc1ccc(C)c(Cn2c3ccccc3c3cnn(CC(=O)NCc4ccccc4)c(=O)c32)c1
→ -11%, -8%
- O=C(c1cccs1)N1CCCc2cc(NS(=O)(=O)c3cc(F)ccc3F)ccc21
→ 1%, 65%[activator]
- Cc1nc2cc(-c3ccccc3)nn2c(C)c1CCC(=O)Nc1ccc(F)cc1F
→ ?, -8%
- Cc1ccc(C)c(CN2C(=O)CSc3ccc(C(=O)NCCc4ccc(Cl)cc4)cc32)c1
→ -2%, 0%
- Cc1nc(-c2cccc(F)c2)sc1CCNC(=O)C1CC1
→ 144%[activator], 21%
- Cc1ccc(CN(C(=O)COc2cccc(Cl)c2)c2ccccn2)o1
→ 14%&65%, 100%&0%[activator]
- Cc1cccc(/C=N/NC(=O)C2CC2)c1
→ 128%[activator], 9%
- CCCCNC(=O)C1CCN(Cc2nc(-c3ccc(OC)c(OC)c3)oc2C)CC1
→ -3%, -10%
- Cc1n[nH]c(=O)c2c(NC(=O)CSc3nnc(C)n3Cc3ccccc3)oc(C)c12
→ -2%, -9%
- C/C(=N/OC(=O)c1ccc(-c2ccccc2)cc1)c1cccs1
→ 18%, -11%
- O=C(CSc1ncnc2nc[nH]c12)NCCc1ccc(Cl)cc1Cl
→ -3%, -10%
- Clc1ccc2c(c1)NC(c1ccncc1)=NC(c1cccs1)=N2
→ 124%[activator], -11%
- COc1ccc(C(=O)Nc2ccc(C(=O)OCc3cc(=O)n4nc(C(C)C)sc4n3)cc2)cc1
→ 26%, -12%
- Cn1cnnc1SCC(=O)Nc1ccc(C#N)cc1
→ -1%, -21%
- CCC(C)NC(=O)CSc1ncc(-c2cccc(Br)c2)o1 (stereo unspecified)
→ 6%, -19%
- COc1cc2oc(=O)c(CC(=O)NCc3ccc(F)cc3)c(C)c2cc1OC
→ 38%[activator], 38%[activator]
- COc1ccc2c(c1)cc(C(=O)Nc1cccc(C)c1)n2C
→ 28%, 2%
- COCCNC(=O)CCC(=O)NNc1nc2ccccc2c2nc(C)nn12
→ -7%, -11%
- Cc1cccc(C(CC(=O)NCC2(c3ccccc3)CCCC2)c2ccccc2)c1O (stereo unspecified)
→ ?, 12%
- CC(OC(=O)c1ccc(OCC(N)=O)cc1)C(=O)c1ccc(Cl)cc1 (stereo unspecified)
→ -7%, -4%
- O=C(Cn1ncc2ccsc2c1=O)N1CCN(c2ccccc2F)CC1
→ 3%, -9%
- CCC(C)Oc1ccc(C2CC(=O)NC3=C2C(=O)CCC3)cc1 (stereo unspecified)
→ 6%, -8%
- COc1ccc(OC)c(NC(=O)CN2C(=O)CCc3cc(S(=O)(=O)N4CCCCC4)ccc32)c1
→ -15%, 95%[activator]
- CCOC(=O)c1ccc2ncc(C(=O)OCC)c(Nc3ccc(C)c(Br)c3)c2c1
→ 9%, -1%
- CCOCCn1c(CN2CCN(C(=O)OCC)CC2)nc2c1c(=O)n(C)c(=O)n2C
→ 3%, 4%
- Cc1ccc(C)c(-c2csc(-c3c(N)c(C(=O)c4ccc5c(c4)OCO5)n4ccccc34)n2)c1
→ -3%, -12%
- Cc1ccc(OCC(=O)Nc2ccc3nc(SCC(=O)N4CCOCC4)sc3c2)cc1
→ -14%, 5%
- O=C(CSc1nccn1-c1ccc(F)cc1)Nc1cccc2ccccc12
→ -8%&-15%, 17%&16%
- CCOC(=O)c1ccccc1NC(=O)Cn1c(=O)n(-c2cccc(C)c2)c(=O)c2c1c1cc(C)ccc1n2C
→ -11%, -5%
- CCCCn1cnc2c1c(=O)[nH]c(=O)n2CCC
→ 11%, 7%
- O=C(NCc1ccccc1S(=O)(=O)N1CCOCC1)c1cccc(Br)c1
→ -4%, 33%[activator]
- COc1ccc(OC)c(C2C(C(=O)c3ccco3)=C(O)C(=O)N2c2nc3ccc(F)cc3s2)c1 (stereo unspecified)
→ 14%, 0%
- CC(=O)c1ccc(NC(=O)CSc2nccn2Cc2ccco2)cc1
→ 92%[activator], 17%

# Filtered by structure: the compounds so far containing a CF3 group.
# Results follow in this order: 2A firefly, StopGo RLuc
- O=C(Nc1cccc(C(F)(F)F)c1)c1ccc2snnc2c1
→ 24%, 4%
- O=C(CCc1cccnc1)NCc1ccc(C(F)(F)F)cc1
→ -7%, -13%[1.06 µM]
